Screening data (PubChem)
UUG fidelity – alters start codon recognition fidelity in yeast | 350,000 compounds, 0.13% hits | S. cerevisiae UUG-firefly luciferase reporter, luminescence/redox ratio | activity score, % at 18.7 µM;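 active means replicate mean at a twofold rise or more, about +100% in these data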;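 further: firefly luciferase made from a UUG start codon reports start codon fidelity; reporter light over untreated wells divided by growth signal over untreated wells; some hits fall short of that in this replicate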
eIF4H inh – inhibitors of RNA binding by human eIF4H | Q15056 | eIF4H fluorescence polarization binding assay | inhibition, % at 35 µM | 290,000 compounds, 0.94% hits;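 active means 50% or more with normal probe brightness, or confirmed in later tests; about a fifth of its hits are not listed in these tables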;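 further: calls also rest on retests at 20 µM and on dose response follow-up; 0% = protein and probe with vehicle and 100% = probe without protein; strong numbers were not always called active; many hits fall short of the cut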
PABP FP inh – PABP-poly(A) binding inhibition; PABP-poly(A) RNA binding, fluorescence polarization; inhibition, % at 35 µM; 290,000 compounds, 1% hits; AID 2014;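 active means 50% or more with normal probe brightness, or confirmed in later tests; about a fifth of its hits are not listed in these tables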;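 further: calls also rest on retests at 20 µM and on dose response follow-up; controls were probe without protein and protein plus probe with vehicle; some compounds called inactive have numbers as strong as hits; many hits fall short of the cut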
CSC inhib – cancer stem cell inhibition. cancer stem cell-like cells viability, luminescence. inhibition, % at 7.5 µM. 300,000 compounds, 1.1% hits;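 active means mean at 75% or more and at least half the replicates too; tested in HMLE shEcad cells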;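 further: 0% = median of negative and 100% = median of positive control wells; the first replicate is given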
MT1-MMP act inh – blocks activation of human MT1-MMP; HT1080 RFP-PRO-GFP cells, GFP/RFP ratio fluorescence, overnight; percent of plate control window, DMSO zero; 360,000 compounds, 0.061% hits; GFP/RFP ratio change, % at 20 µM;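 active means GFP/RFP ratio change of at least 30% with cell ATP level not reduced by more than half and red fluorescence within 50% of control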; further: strong numbers were not always called active
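system = RFP-PRO-GFP reporter HT1080 cells | dosing = 20 µM single dose, 1% DMSO | timing = overnight cell settling, then overnight compound exposure, 37 °C, 5% CO2 | read-out basis = GFP/RFP fluorescence ratio | controls = DMSO and RFP-L50D-GFP cell wells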
Rce1 inhib – blocks yeast Ras-converting enzyme; 290,000 compounds, 0.27% hits; calls only; Q03530; yeast membranes, quenched prenylated peptide cleavage fluorescence; AID 2563;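 active means fall in fluorescence gain of 50% or more versus controls, with final raw signal at or below 3038400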;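 further: plate controls were neutral control wells for no effect and wells lacking membranes for full effect; tested at 10 µM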
Target sequence (Q03530 whole entry, looked up): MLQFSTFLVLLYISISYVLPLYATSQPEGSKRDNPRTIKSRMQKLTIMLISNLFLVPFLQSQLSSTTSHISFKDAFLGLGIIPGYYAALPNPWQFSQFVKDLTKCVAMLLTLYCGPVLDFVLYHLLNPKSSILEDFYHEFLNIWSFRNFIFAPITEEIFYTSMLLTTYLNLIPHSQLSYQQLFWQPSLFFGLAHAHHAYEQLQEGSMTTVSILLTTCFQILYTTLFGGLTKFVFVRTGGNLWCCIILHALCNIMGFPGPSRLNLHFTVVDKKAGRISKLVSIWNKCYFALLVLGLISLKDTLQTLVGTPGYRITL
Env fusion inh – HIV envelope-mediated fusion inhibition | HeLa-JRFL Env/CEM21 cell fusion, luciferase | inhibition, % at 12.3 µM | 360,000 compounds, 1.1% hits | AID 651610;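 active means mean replicate inhibition score of at least 50 and every replicate individually at or above 50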;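 further: 0% = plate neutral controls and 100% = maraviroc near 300 nM; one replicate is shown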
eIF4H inh retest – further read-out of eIF4H inh, marked with its call; inhibition, %; compound at 20 µM; confirmation average;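 mean of two retest wells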
PABP FP inh retest – also measured in PABP FP inh; calls as there; inhibition, %; compound at 20 µM; confirmation repeats;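 mean of two retest wells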
MT1-MMP act inh RFP – recorded beside MT1-MMP act inh, whose call it bears; RFP signal change, %; measured here: RFP expression control read;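 0 = vehicle wells; hits needed this value within 50% of zero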
The depositor's hits bear a star; i = inactive; / = no result given; + = active, no number; & = joins results of further samples.

SMILES | UUG fidelity | eIF4H inh | PABP FP inh | CSC inhib | MT1-MMP act inh | MT1-MMP act inh RFP | Rce1 inhib | Env fusion inh | others
CCn1cc(C(=O)O)c(=O)c2cc(F)c(N3CCN(C(=S)NC(=O)c4ccc(OC)cc4)CC3)cc21 | -5 | 6 | 5 | -1 | -8 | -4 | i | -6
CCCCN(CCCC)S(=O)(=O)c1ccc(SCC(=O)OCC)c([N+](=O)[O-])c1 | -6 | 6 | -7 | 4 | 6 | -3 | i | /
CC(C)(C)OC(=O)C[C@@H]1C/C=C\C[C@H](CC(=O)N(CCO)Cc2ccccc2)C(=O)N2CCC[C@@H]2COC1=O | 1 | / | / | -16 | 0 | 6 | / | -1
COc1ccc(NC(C)=[N+](C)CCNS(=O)(=O)c2ccc(Cl)cc2)cc1Cl | -16 | / | / | 7 | 1 | 2 | i | i
Cc1ccccc1S(=O)(=O)c1c(C)cc(C)n(C(C)C)c1=O | -29 | 11 | 4 | 0 | 3 | 2 | i | /
CC(C)c1ccc(CCNC(=O)CSC(=S)N2CCCC2)cc1 | -12 | / | / | 2 | 4 | 8 | i | 4
COc1ccc(-n2nc(C(=O)NCC(=O)N3CC(C)CC(C)C3)c3ccccc3c2=O)cc1OC (centres undefined) | -5 | -6 | 1 | / | 2 | 1 | i | 7
Cn1c(OCc2cccnc2)nc2c1c(=O)n(Cc1ccccc1)c(=O)n2C | -7 | -6 | 2 | -9 | -1 | -2 | i | /
Cc1cc(NC(=O)c2ccc(Br)c(S(=O)(=O)N3CCCC3)c2)no1 | -23 | 6 | -3 | -4 | 4 | -7 | i | 45
C[C@H]1CN([C@@H](C)CO)C(=O)c2cc(Br)cnc2O[C@@H]1CN(C)S(C)(=O)=O | -4&-2 | / | / | / | 3 | 2 | / | -10
COCCCNCCCCSc1ccc(Cl)cc1 | / | -9 | -7 | 21 | 2 | 6 | i | /
CC(C)(C)OC(=O)N[C@@H](Cc1ccccc1)C(=O)N1CCC(C(=O)N[C@@H](Cc2c[nH]c3ccccc23)C(=O)O)CC1 | -9 | 0 | -8 | 1 | -5 | -2 | i | 10
CC(Sc1nc2c(c(=O)[nH]1)CCCC2)C(=O)Nc1ccccc1C#N (centres undefined) | -9 | -4 | -7 | -11 | -1 | 2 | / | -2
CSc1cccc(CN2CCCC(CO)(Cc3cccc(Cl)c3)C2)c1 (centres undefined) | -16 | -7 | -5 | 31 | 2 | 6 | / | -5
O=C(CN1CCc2ccccc21)NC(=O)NC1CCCCC1 | / | -8 | 1 | -7 | 1 | 3 | i | 8
COc1ccc(NS(=O)(=O)c2ccc(N3CCOCC3)c(NC(=O)c3cccc(F)c3)c2)cc1 | / | -4 | 20 | 6 | 0 | -13 | i | -5
C=CCN1c2ccccc2[C@]23C[C@@H](C(=O)OC)N(C(=O)NC4CCCC4)C2=NC(C(=O)OC)=C(C(=O)OC)[C@H]13 | -12 | / | / | 4 | -3 | -2 | i | -11
COc1ccc(Br)cc1CN(C)C(=O)C1CC(=O)N(C2CCCC2)C1 (centres undefined) | 12 | / | / | -1 | 1 | 0 | / | 20
Cc1ccsc1/C=C1/SC(N2CCOCC2)=NC1=O | / | -10 | 14 | 6 | / | / | i | /
C=CC[C@H](CC(=O)OC(C)(C)C)C(=O)OC[C@@H]1CCCN1C(=O)[C@@H](CC=C)CC(=O)N[C@H](CO)Cc1ccccc1 | 22 | / | / | -5 | 3 | -9 | / | -48
O=C(NCc1ccccn1)C1CCC(=O)N(Cc2ccc(Cl)cc2)C1 (centres undefined) | -19 | -6 | -3 | 0 | -2 | 0 | i | -2
O=C(O)C(CCCCN1C(=O)c2ccccc2C1=O)N1C(=O)c2ccccc2C1=O (centres undefined) | -14 | 5 | 13 | -9 | 2 | -2 | i | /
COc1ccc(OC)c(NC(=O)CCN2CCN(Cc3ccccc3)CC2)c1 | 4 | -3 | 6 | -6 | 7 | 6 | i | /
CC(Nc1cccc(F)c1)C(=O)Nc1ccc(S(N)(=O)=O)cc1 (centres undefined) | / | -3 | -5 | -7 | -1 | 0 | i | 7
Cn1c(NC(=O)c2ccc(S(=O)(=O)N3CCCCC3)cc2)cc(=O)n(C)c1=O | 6 | 0 | 35 | -13 | 2 | 8 | i | 7
COc1ccc(CCNc2nc(C)cc(=O)[nH]2)cc1OC | -11 | / | / | -6 | 3 | 7 | i | -63
COc1ccc(Nc2nc(C(=O)NCc3ccco3)cs2)cc1 | -18 | -4 | -3 | 2 | -1 | -11 | i | 30
O=C(C1CCC1)N1CCc2cc(S(=O)(=O)NC3CCCc4ccccc43)ccc21 (centres undefined) | -10 | -12 | -3 | 0 | 1 | -12 | i | /
Nc1nc(Nc2ccccc2F)nc(N2CCCC2)c1[N+](=O)[O-] | -6 | -2 | 9 | 24 | -4 | -7 | i | -34
CCC(C(=O)Nc1ccncc1)c1ccccc1 (centres undefined) | / | 2 | -6 | -14 | 1 | -12 | i | 3
CC(C)(C)c1nc2scc(-c3ccc(Cl)cc3)c2c(=O)o1 | -8 | -1 | 8 | 5 | 4 | -2 | i | -18
Cc1cc(C)nc(SCCN2CCCCC2)n1 | / | / | / | -8 | 2 | 4 | i | -5
OCCN1CCN(C(=S)c2ccc(Cl)c(Cl)c2)CC1 | -21 | -2 | 12 | 7 | 7 | 5 | i | 1
CCOc1ccc(CCNC(=O)CCC(=O)N2CCOc3ccccc32)cc1OCC | -7 | 2 | -3 | -3 | 0 | 0 | i | 17
CCOc1ccc(-c2c(C(=O)N/N=C/C3CCCCC3)nnn2-c2nonc2N)cc1 | -15 | -8 | 1 | 0 | -2 | -2 | i | -3
COc1ccccc1-c1nnc(NC(=O)CCS(=O)(=O)c2ccc(F)cc2)o1 | -33 | / | / | / | -5 | 2 | / | -8
CCN(CC(F)(F)C(F)F)S(=O)(=O)c1ccc(NC(=O)OC)cc1 | 3 | -7 | 1 | -14 | 0 | 4 | i | 11
CC(C)c1ccc(S(=O)(=O)/N=C2\C=C(NS(=O)(=O)c3ccccc3)C(=O)c3ccccc32)cc1 | -20 | 18 | 21 | -9 | 2 | 2 | i | 18
O=C1CSC(c2ccccc2Br)N1c1ccc(Cl)cn1 (centres undefined) | / | -8 | 1 | 9 | 11 | 2 | i | 18
Cc1cc(C)n2c(-c3ccccc3Cl)nnc2n1 | -23 | 19 | 3 | -5 | 0 | 5 | i | /
O=C(CC1SCCNC1=O)Nc1cccc([N+](=O)[O-])c1 (centres undefined) | / | -10 | 6 | -13 | 1 | 2 | i | 6
Fc1ccc2c(c1)C1OCCCC1C(c1ccccc1)N2 (centres undefined) | -11 | -1 | 6 | 16 | -5 | -6 | i | 11
O=C(Oc1cccc2cccnc12)c1cccc(-n2cnnn2)c1 | 0 | -8 | -2 | -9 | 3 | 0 | i | -10
CC1(C(=O)NS(=O)(=O)c2ccccc2)CCN1C(=O)Cc1ccccc1Cl (centres undefined) | -6 | / | / | / | -1 | 3 | / | -23
CC(=O)NC(Cc1c[nH]c2ccccc12)C(=O)O (centres undefined) | -18 | 0 | 13 | -2 | 1 | 5 | + | /
COc1ccc(C2CCCN2C(=O)c2cccs2)cc1 (centres undefined) | -3 | 5 | -6 | -10 | 2 | 2 | i | /
CCOc1cc(C2C(C(=O)OC(C)C)=C(C)NC3=C2C(=O)CCC3)cc([N+](=O)[O-])c1O (centres undefined) | / | -3 | -7 | -6 | 0 | 1 | i | 6
Cc1ccc2[nH]c3c(NCc4ccco4)ncnc3c2c1 | -6 | 9 | 8 | / | 7 | -21 | i | 44
O=C(Nc1ccc2c(c1)OCCO2)C(C1CC1)N1CCC(Cc2ccccc2)CC1 (centres undefined) | -7 | / | / | / | -1 | -2 | / | 10
CC(NC(=O)c1ccc(Br)o1)C1CC2CCC1C2 (centres undefined) | -8 | -6 | 8 | -6 | -1 | 1 | i | 11
COc1ccc(/C=N/NS(=O)(=O)c2ccc(C)cc2)cc1OC(=O)c1ccc(C)cc1 | -9 | -1 | 3 | -9 | 2 | -4 | i | /
COc1ccccc1OCCNC(=O)CN1C(=O)NC2(CCCCC2)C1=O | 1 | / | / | / | 0 | 3 | / | -1
CCn1c(SCC(=O)Nc2ccccc2C)nc2nc3c(cc2c1=O)COC(C)(C)C3 | / | -4 | 8 | -6 | -1 | 2 | i | 5
Cc1cccc(NC2=CC(=O)CC(C)(C)C2)c1C | / | -8 | 8 | -17 | 5 | 4 | i | 3
Cc1cc(CNC(=O)CC2C(=O)NCCN2Cc2ccc(-c3ccccc3)cc2)nn1C (centres undefined) | 5 | 11 | 4 | -16 | 1 | 1 | i | -6
COC(CCN(C)C)(c1ccccc1)c1ccccc1 | -12 | 0 | 1 | 5 | -8 | -1 | i | /
Cc1ccc[n+](-c2nc([O-])sc2/C=N/Nc2ccc([N+](=O)[O-])cc2)c1 | -2 | 117 | 83 | -6 | 14 | 2 | i | 4 | eIF4H inh retest=18;PABP FP inh retest=43
CCOc1ccc(OCC(=O)Nc2nccs2)cc1 | / | -2 | 0 | -8 | -3 | -6 | / | /
CCCCNS(=O)(=O)c1cccc(NC(=O)[C@@H]2O[C@H](CO)[C@H](O)[C@H](O)[C@H]2O)c1 | -21 | / | / | / | 2 | 2 | / | 7
CC1CCCCN1C(=O)CCc1nnc(Cc2c[nH]c3ccccc23)o1 (centres undefined) | / | -9 | 7 | -10 | -1 | 2 | i | 0
Next compounds:
SMILES | UUG fidelity | eIF4H inh | PABP FP inh | CSC inhib | MT1-MMP act inh | MT1-MMP act inh RFP | Rce1 inhib | Env fusion inh | others
CCCCOC(=O)c1ccccc1N1C(=O)C2C3CCC(C3)C2C1=O (centres undefined) | 11 | -5 | 6 | / | 1 | 1 | i | 20
Cc1ccc(NC(=O)CSc2nc3[nH]ncc3c(=O)[nH]2)c(C)c1 | / | 4 | 3 | 5 | -2 | -4 | i | -21
O=C(c1ccc(CSc2ccc(Cl)cc2)cc1)N1CCOCC1 | / | -6 | -3 | 9 | 6 | -16 | / | 33
CCOc1cc(C=O)ccc1OCCn1c([N+](=O)[O-])cnc1C | -16 | -5 | -3 | -8 | -4 | -1 | i | -3
Cc1cc(NCCCN(C)C)n2c(nc3ccccc32)c1C#N | -12 | -8 | -5 | -12 | -14 | -6 | i | 21
O=C(COc1ccc(-c2ccccc2)cc1)N/N=C/c1cccnc1 | -13 | / | / | 30 | 8 | 1 | i | -7
CCn1cc2nc(SCC(=O)Nc3ccc(F)cc3F)n(Cc3ccccc3)c(=O)c2n1 | 3 | 2 | -2 | 5 | 2 | -3 | i | 3
CC(C)c1nnc(NC(=O)c2nc(S(=O)(=O)Cc3ccccc3)ncc2Cl)s1 | 2 | -2 | -2 | / | -1 | 3 | i | -157
